Screening data: PubChem BioAssay, National Center for Advancing Translational Sciences (NCATS)
NPR1 antag: Natriuretic polypeptide receptor (hNpr1) antagonism - Primary qHTS. Potency, µM (series often up to 46.3 µM), inactives show top-dose activity change, negative = inhibition, most hits filed as inhibitors. Atrial natriuretic peptide receptor 1 (Homo sapiens), P16066. HEK293 hNpr1 GloSensor cGMP, ANP-stimulated luminescence. AID 1347048, 2019. 76,000 tested, 1.6% active; active = well fitted inhibition curve with a large enough effect; inconclusive = small, poorly fitted or top-dose-only effect; inactive = no such curve, though single readings can be large or run the other way;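 also: nearly all actives have a fitted effect of over 60% in size; nearly all hits also lower the signal before the agonist is added; a reference antagonist and vehicle were the controls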
Target sequence (P16066 whole entry, looked up): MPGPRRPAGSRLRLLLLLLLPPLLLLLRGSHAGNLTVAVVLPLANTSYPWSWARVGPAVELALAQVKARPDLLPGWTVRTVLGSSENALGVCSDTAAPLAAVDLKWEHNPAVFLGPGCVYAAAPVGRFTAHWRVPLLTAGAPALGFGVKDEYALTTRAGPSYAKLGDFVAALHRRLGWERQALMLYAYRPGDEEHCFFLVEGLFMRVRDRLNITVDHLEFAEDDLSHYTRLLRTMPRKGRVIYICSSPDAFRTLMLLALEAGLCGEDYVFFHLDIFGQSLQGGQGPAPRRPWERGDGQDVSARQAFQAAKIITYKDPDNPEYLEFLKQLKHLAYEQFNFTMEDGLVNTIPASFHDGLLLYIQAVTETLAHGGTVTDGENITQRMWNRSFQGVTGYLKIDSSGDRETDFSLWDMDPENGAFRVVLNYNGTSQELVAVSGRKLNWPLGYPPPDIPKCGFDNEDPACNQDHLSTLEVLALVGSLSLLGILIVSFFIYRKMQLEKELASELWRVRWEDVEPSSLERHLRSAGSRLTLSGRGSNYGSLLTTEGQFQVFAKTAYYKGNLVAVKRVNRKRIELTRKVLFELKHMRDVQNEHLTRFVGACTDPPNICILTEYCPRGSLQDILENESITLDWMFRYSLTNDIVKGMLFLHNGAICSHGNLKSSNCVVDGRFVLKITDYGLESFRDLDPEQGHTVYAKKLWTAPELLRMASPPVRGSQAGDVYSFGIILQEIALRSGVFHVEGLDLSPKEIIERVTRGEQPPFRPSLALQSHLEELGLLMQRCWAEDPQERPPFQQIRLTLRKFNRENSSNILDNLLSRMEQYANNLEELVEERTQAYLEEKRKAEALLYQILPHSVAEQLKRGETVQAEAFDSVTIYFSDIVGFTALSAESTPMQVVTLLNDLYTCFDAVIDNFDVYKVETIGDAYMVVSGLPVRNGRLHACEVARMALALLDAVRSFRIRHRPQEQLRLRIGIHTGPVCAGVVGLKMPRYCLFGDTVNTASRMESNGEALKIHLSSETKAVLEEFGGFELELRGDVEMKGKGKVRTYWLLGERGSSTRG
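Compound pre-incubated 30 min at room temperature on GloSensor-loaded HEK293 cells stably carrying hNpr1 and the pGS-40F cGMP biosensor. Stimulation uses hNppA at 0.1 nM final; luminescence is taken at baseline and 20 min post-agonist.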
* hit, by the source's call; ? = inconclusive; & = joins results of further samples; [ ] = another dose, or the depositor's remark. % is scaled to controls: 0 for no effect and ±100 for the full control effect; potency is read from the fitted curve at half-maximal effect. An excerpt; rates above refer to the full screens.

No.	SMILES	NPR1 antag
1	COc1cccc(NC(=O)c2ccc3c(c2)NC(C)(CNc2ccccc2)CO3)c1 (stereo unspecified)	?
2	CC1=C[C@@H](CNC(=O)CC2(CC(=O)O)CCCC2)[C@H](C(C)C)C[C@H]1Cc1nc2ccc(F)cc2[nH]1	-14.2%
3	O=C(Nc1nc2ccccc2s1)C1CC(=O)N(c2n[nH]c3cccc(F)c23)C1 (stereo unspecified)	-15.4%
4	Cc1ccccc1CNC[C@H]1O[C@@H]2C[C@@H](CC(=O)NC(C)C)O[C@@H]2[C@@H]1O	1.1%[70.6 µM]
5	O=C(Nc1cccnc1)c1nc2c(o1)CCN(Cc1cccc(O)c1)CC2	?
6	CN(C)c1cccc(C(=O)N2CCC3(CC2)NC(=O)N(c2ccccc2)N3)c1	16.6%
7	CC[S+](=O)([O-])NC1CCN(C(=O)N2CC3CC(C2)[C@H]2CCCC(=O)N2C3)CC1 (stereo partly specified)	4.9%
8	COc1ccc(C(=O)N2CCC[C@H]2c2nc(-c3ccccc3Cl)no2)cc1OC	-8.7%
9	CCCn1ccc2oc(C)c(C(=O)NCc3ccccc3Br)c2c1=O	6.4%
10	O=C(Cc1c(F)cccc1Cl)NC1CCN(c2cc(-c3ccccc3)[nH]n2)CC1	-16.9%
11	CC(C)N1C[C@H](O)C[C@H]1c1nnc2n1CCN(C(=O)Cc1cccc(F)c1)CC2	-7.2%
12	C=CCNC(=O)c1ccc(-c2nnc3ccc(NC(=O)C4CCC4)cn23)cc1	-2.8%
13	C[C@H]1CN(C(=O)c2nn(C)c3ccccc23)C[C@@H]1c1nc(-c2ccncc2)no1	0.0%
14	Cc1cn2nnc(C(=O)NC3CCc4ccccc43)c2c(=O)[nH]1 (stereo unspecified)	0.0%
15	O=C(Cc1ccccc1)N1CCN(c2cc(-c3ccccc3)[nH]n2)CC1	-17.7%
16	O=C(c1ccc(C(F)(F)F)cc1)N1CCC2(CC1)CCN(CCc1ccccc1)c1ccccc1O2	-6.1%
17	CC(=O)Nc1cccc(-c2nc(-c3c(C)noc3C)cc3cc(CO)oc23)c1	-2.3%[70.6 µM]
18	COc1ccc(CN2C(=O)COC[C@H]2C(=O)Nc2ccc(F)c(F)c2)cc1OC	-17.8%
19	Cc1c(CN(C)c2cc(C3CC(O)C3)nc(N)n2)[nH]c2ccccc12 (stereo unspecified)	0.631µM*
20	CN(C)Cc1cccc(-c2cc3c(ccn3Cc3cccnc3)c(C3=CCOCC3)n2)c1	0.2%[70.6 µM]
21	CCc1nc(-c2c3n(c(=O)n(Cc4ccc(F)cc4)c2=O)CCCCC3)no1	-8.1%
22	O=C1Nc2ccccc2OCC12CCN(CC1CCCCC1)CC2	0.1%[70.6 µM]
23	COc1ccc(N2CCN(C(=O)CN3C(=O)NC4(CCOCC4)C3=O)CC2)cc1	0.0%
24	CC(C)(Cc1ccc(F)cc1)NC(=O)CC1C(=O)NCCN1Cc1ccoc1 (stereo unspecified)	-10.0%
25	CCc1ccccc1S(=O)(=O)N1CCC(n2cnnc2C)CC1	5.2%
26	O=C(Nc1ccccc1C(F)(F)F)N1CCCC(Cn2cnc3cccnc32)C1 (stereo unspecified)	-0.1%
27	COCCOC1CCOC2(CCN(C(=O)Cc3cccc(OC)c3)CC2)C1 (stereo unspecified)	0.0%
28	Cc1nccn1CCCC(=O)N1CCC2(CC1)CNC(C(=O)O)C2 (stereo unspecified)	-2.0%
29	NCCn1cc(C(=O)N2CC[C@@H](c3ccc4c(c3)OCO4)[C@H](O)C2)nn1	-8.1%
30	O=C(CCC1CCN(C(=O)c2ccccc2F)CC1)NCC1CCCCC1	-18.0%
31	COc1ccc(-c2ccccc2C(=O)N(C(C)C)C(C)C)c2cccnc12	3.2%
32	COc1ccc(CNC[C@H]2O[C@H](Cc3cc(COc4ccccc4)on3)CC[C@@H]2O)cc1	2.8%
33	Cn1nc2n(c1=O)CCN(S(=O)(=O)c1ccc3[nH]c(=O)oc3c1)CC2	0.8%
34	CCN(CC)Cc1cnc2c(C(=O)Nc3ccc(OC)c(OC)c3)cnn2c1	3.7%
35	Cc1cccc(O[C@H]2COCCN(Cc3nccn3C)C2)n1	0.3%[70.6 µM]
36	O=C(c1cccc(Cl)c1)N1CCC2(CC1)CC(O)CCO2 (stereo unspecified)	0.9%
37	CCCNC(=O)N1CCC2(CCCN(Cc3cccc(F)c3F)C2=O)C1 (stereo unspecified)	5.2%
38	O=C(O)CC1(CC(=O)N2CC[C@H]3NC(=O)N(c4ccc(Oc5ccccc5)cc4)C(=O)[C@H]32)CCCC1	1.7%
39	CCc1ccc(S(=O)(=O)N2CC(F)(F)C[C@H]2c2nnc(C)o2)cc1	9.4%
40	c1csc(CN2Cc3[nH]cnc3C[C@H]2c2nc(-c3ccc4ccccc4c3)no2)c1	-24.0%[70.6 µM]
41	COCCN1C(=O)CC[C@]2(C(=O)NCc3ccccc3Cl)CCCC[C@@H]12	-2.2%
42	COc1cccc(CN2C(=O)CCCCC2C(=O)N2CCc3ccccc3C2)c1 (stereo unspecified)	-1.2%
43	Cc1ccc2c(c1)N1C(=O)OC[C@@H]1CCN(C(=O)CN(C)C)C2	8.4%[70.6 µM]
44	CC(C)NC(=O)C[C@@H]1C[C@H]2O[C@H](CNCc3ccncc3F)[C@@H](O)[C@H]2O1	1.1%[70.6 µM]
45	O=C1CC(c2noc(-c3cc(F)cc(F)c3)n2)CN1C1CCCCC1 (stereo unspecified)	-11.9%
46	O=C(c1ccccc1C1CCNC1)N1CCN(C/C=C/c2ccccc2)CC1 (stereo unspecified)	-1.1%
47	CCOCCCNC(=O)N1CCCCCC1c1nc(-c2ccncc2)no1 (stereo unspecified)	-0.2%
48	O=C([C@@H]1C[C@H](F)CN1C(=O)NCc1ccco1)N1CCCCC1	1.4%
49	Cn1cnnc1CC1CCN(C(=O)CC2CCCCC2)C1 (stereo unspecified)	-1.2%
50	NC(=O)c1cc[nH]c1C1CCCN(C2CCOCC2)C1 (stereo unspecified)	-2.8%

Next section, overlapping the part above by four compounds.
No.	SMILES	NPR1 antag
47	CCOCCCNC(=O)N1CCCCCC1c1nc(-c2ccncc2)no1 (stereo unspecified)	-0.2%
48	O=C([C@@H]1C[C@H](F)CN1C(=O)NCc1ccco1)N1CCCCC1	1.4%
49	Cn1cnnc1CC1CCN(C(=O)CC2CCCCC2)C1 (stereo unspecified)	-1.2%
50	NC(=O)c1cc[nH]c1C1CCCN(C2CCOCC2)C1 (stereo unspecified)	-2.8%
51	COc1ccc(OC)c(-c2ccc3ncn(-c4ccc(F)cc4F)c(=O)c3n2)c1	2.0%[70.6 µM]
52	COc1ccc(Cn2c3c(c(=O)n2Cc2ccccc2)CCN(C(=O)c2scnc2C)C3)cc1	-0.8%
53	O=C(Cc1c[nH]c2ncc(-c3ccccc3C(F)(F)F)cc12)N1CCOCC1	2µM*
54	O=C(c1ccccc1Cl)N1CCC2(CC1)C(=O)NCN2Cc1ccc(Cl)cc1	2.8%
55	C[C@@H](NC(=O)COc1ccccc1)c1c(-c2ccc(F)cc2)noc1C(=O)O	2.3%[70.6 µM]
56	O=C(c1ccc2c(c1)ncn2CCO)N1CCCC(CCc2ccccc2F)C1 (stereo unspecified)	-0.9%
57	COc1ccc(NC(=O)N2CCc3c(C(=O)Nc4ccccc4)cccc32)cc1	4.47µM*
58	CN1C(=O)CC(C(=O)O)C12CCN(CCc1ccccn1)CC2 (stereo unspecified)	1.9%
59	Cc1nn(-c2ccc(C(C)C)cc2)c(C)c1[C@@H]1C=C[C@@H](NCc2cccc(C#N)c2)C1	-19.3%[70.6 µM]
60	CC(C)CNC(=O)N1CCC(CCOc2ccc(F)cc2)C1 (stereo unspecified)	-24.9%
61	COc1ccc(-c2nc(-c3c(C)noc3C)cc3c2cc(C)n3CCN(C)C)cc1OC	-16.4%[70.6 µM]
62	COCCNC(=O)[C@@H](C)C1CC[C@@]2(C)CC[C@H](NC(=O)c3ccc(C#N)cc3)[C@@H](C)[C@@H]2[C@H]1O (stereo partly specified)	4.2%
63	Cc1ccc(CN2CCC(C3CCN(C)CC3)C2)o1 (stereo unspecified)	10.6%
64	FC(F)(F)c1cccc(C2=NOC3(CCN(Cc4cccc5ccccc45)CC3)C2)c1	0.3%
65	CC1CCCCN1C(=O)Cn1ccn2nc(-c3ccc(F)cc3)c(CO)c2c1=O (stereo unspecified)	4.5%
66	COc1ccc(Cn2c(=O)c(-c3noc(C)n3)c3n(c2=O)CCCCC3)cc1	17.4%
67	CCN(C)Cc1cn(Cc2ccccc2)nc1-c1ccc2c(c1)OCO2	-1.1%
68	O=C(NC1CCCCC1)C1CN(S(=O)(=O)c2cc(F)cc(F)c2)CC12CCOCC2 (stereo unspecified)	-1.0%
69	COCCOc1ncccc1-c1noc([C@@H]2CCCN2CC2CC2)n1	-5.9%[70.6 µM]
70	O=C1CCCN1Cc1nc(-c2ccc(F)c(Cl)c2)no1	1.0%
71	CN(C)c1ccc(CN2CCC3(C2)C(=O)Nc2ccccc23)cc1 (stereo unspecified)	2.5%[70.6 µM]
72	COc1ccc(OC)c(-c2nc3ccc(-c4ccc(OC)c(OC)c4OC)cc3o2)c1	-9.9%
73	CNC(=O)C1(N2CCC[C@H]2C(=O)NC(C)C)COC1	3.6%[70.6 µM]
74	O=C(Cn1ccn2nc3c(c2c1=O)CCCCC3)NCc1ccc(F)cc1	9.0%
75	COc1ccccc1-c1nnc([C@H]2CCN(Cc3ccc(C(=O)O)cc3)C2)o1	1.4%[70.6 µM]
76	COc1cccc(CN2CCC([C@H]3[C@@H](OC)C(=O)N3C(C)C)CC2)n1	-9.9%
77	CCc1cc(=O)n(CC(=O)Nc2ccc(Br)cc2F)c(N2CCOCC2)n1	-1.5%
78	COCCOC1CN(C2CCN(C(=O)Cc3cccc(F)c3)CC2)C12CCCCC2 (stereo unspecified)	-11.4%
79	Cc1cn2nc(C(=O)Nc3cc(F)cc(F)c3)cc2c(N(C)Cc2ccccc2)n1	-0.7%
80	COc1ccc(-c2[nH]nc3ncc(-c4cn[nH]c4)nc23)c(C)c1	0.4%[70.6 µM]
81	Cc1cccc(CN2C[C@@H]3C(=O)N(Cc4ccc5c(c4)OCO5)C(=O)[C@@H]3C2)c1	2.8%
82	CN(CC1(C)CCOCC1)C(=O)c1ccc(F)c(Cl)c1	1.2%
83	COc1cc(SC)ccc1C(=O)N[C@@H]1C=C(C(=O)N[C@@H](Cc2ccc(O)cc2)C(N)=O)C[C@@H](O)[C@@H]1O	-3.4%
84	COCCNC(=O)C[C@@H]1C[C@H]2O[C@H](CNCc3ncccc3C)[C@@H](O)[C@H]2O1	2.0%[70.6 µM]
85	CC(C)c1ccc(C(=O)N2CCC(N3C(=O)CCC3C(=O)NCc3ccccc3)CC2)cc1 (stereo unspecified)	-8.4%
86	COc1cc(CNC(=O)c2ccc3c(c2)N(C(=O)c2ccc(F)cc2)CC3)cc(OC)c1	?
87	O=C(C[C@H]1NC(=O)c2ccccc2NC1=O)Nc1ncn[nH]1	-1.0%
88	CC1Oc2ccc(NC(=O)c3ccc4c(c3)OCO4)cc2CN(Cc2ccccc2)C1=O (stereo unspecified)	?
89	O=C(c1ccc(C(F)(F)F)cc1)N1CCC2(CC1)CC(O)CCO2 (stereo unspecified)	1.8%
90	COc1ccc(Cn2c(C3CCN(C(=O)c4ccc(C)c(F)c4)CC3)n[nH]c2=O)cc1	-0.9%
91	O=C1NCCCN1C1CCN(Cc2ccccc2)CC1	-1.8%[70.6 µM]
92	Cn1ccc2c(C(=O)NCc3cccnc3)nc(-c3ccncc3)cc21	1.5%[70.6 µM]
93	Cc1cc(C)c(CNC(=O)c2cc(-c3ccccc3)cc3c2OCCN3C(C)C)c(=O)[nH]1	-8.7%[70.6 µM]
94	COc1cccc(C(=O)Nc2cnc(-c3ccccc3)nc2)c1	-28.9%
95	O=C(NC1CCCC1)c1csc(N2CCN(c3cccc(Cl)c3)CC2)n1	-18.8%
96	O=c1ncn(Cc2ccccc2)c2ccc(-c3ccc(O)c(F)c3)nc12	1.8%[70.6 µM]
97	NC(=O)[C@@H]1CN(C(=O)C2CC2)C[C@H]1COc1ccccc1	-10.8%
98	CCC(C)NC(=O)N1CCC(c2nn(CC(=O)NC)c3c2COCC3)CC1 (stereo unspecified)	2.4%
99	CC(C)CN1C(=O)c2cccn2CC1C(=O)NCc1cccc(C(F)(F)F)c1 (stereo unspecified)	-2.1%
100	COC(=O)[C@@H]1Cc2ncn(Cc3ccccc3)c2CN1S(=O)(=O)c1cccc2c(N(C)C)cccc12	-6.2%

More entries.
No.	SMILES	NPR1 antag
101	CN1C(=O)CS(=O)(=O)C12CCN(C(=O)c1cc(F)ccc1F)CC2	4.8%
102	CC(C)CNc1ccc2c(n1)C(C)(C(=O)N1CCOCC1)CN(Cc1ccccc1)C2 (stereo unspecified)	-3.3%[70.6 µM]
103	CN(Cc1cc(-c2ccccc2)no1)Cc1ncccc1C(=O)O	5.7%
104	COCCNC(=O)[C@@H]1CCC[C@@H](NC(=O)CC(C)C)CN(C)C(=O)C1	2.4%[70.6 µM]
105	CCC(COC)NC(=O)c1ccccc1OC1CCN(C(=O)COC)CC1 (stereo unspecified)	-3.9%
106	CCc1ccccc1NC(=O)Cn1c(-c2ccc(F)cc2)nc(C)c(CCO)c1=O	4.3%
107	Cn1cc([C@@H](NC(=O)c2ccc3scnc3c2)C2CC(O)C2)cn1 (stereo partly specified)	2.6%&19.4%

Looked up above.
Value of `CCc1ccccc1NC(=O)Cn1c(-c2ccc(F)cc2)nc(C)c(CCO)c1=O` in NPR1 antag: 4.3%
Value of `CC(C)CNc1ccc2c(n1)C(C)(C(=O)N1CCOCC1)CN(Cc1ccccc1)C2` (stereo unspecified) in NPR1 antag: -3.3%[70.6 µM]
Value of `COCCNC(=O)[C@@H]1CCC[C@@H](NC(=O)CC(C)C)CN(C)C(=O)C1` in NPR1 antag: 2.4%[70.6 µM]
